CDC25B CDK2 inh: primary biochemical HTRF screen for blockers of M-phase inducer phosphatase 2 binding to CDK2/cyclin A; P30305+P24941; HTRF CDC25B-CDK2/CyclinA binding, anti-His/anti-Flag; active compounds read high; z-score (concentration not given with the values); actives 0.72% (n = 94,000); AID 1259370, 2018;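 note: score is relative to mean and SD of negative controls; strong numbers were not always called active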
HIV TAR-Tat: TAR RNA-Tat peptide displacers, HIV-1, primary screen, biochemical, FRET, FAM/TAMRA-labeled Tat; z-score (no concentration beside the values); HIV-1 TAR RNA, Tat peptide displacement FRET; active compounds read high; actives 0.6% (n = 100,000);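 note: score is relative to mean and SD of negative controls; some compounds called inactive have numbers as strong as hits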
* = called active by the depositor; x = no result given.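 Rule for the calls: active = z-score from 3 up in half or more of its runs; inactive = the rest.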

SMILES	CDC25B CDK2 inh	HIV TAR-Tat
O=C1C[C@H]2[C@H](CO)[C@@H](OC(=O)c3ccc(-c4ccccc4)cc3)C[C@H]2O1	-2.7	x
CCC(C)Nc1nc2c(c(=O)n(C)c(=O)n2C)n1CC(O)COc1ccccc1 (stereo unspecified)	-1.9	-1.7
CCOC(=O)C1=C(C)N=C2SC(C)C(=O)N2C1c1ccc(OC)cc1 (stereo unspecified)	-3.5	-0.15
CC1CCC(Nc2c(-c3ccc(OC(C)C)cc3)nc3c(C#N)c[nH]n23)CC1 (stereo unspecified)	0.4	-2.2
CC1CN(C(=O)C2CC2)c2cc(S(=O)(=O)N3CCn4c3nc3ccccc34)ccc2S1 (stereo unspecified)	x	1.4
COc1ccc(OC(C)c2nc(-c3ccc(OC)cc3)no2)cc1 (stereo unspecified)	-0.08	0.38
C=C(C)Cn1c(SCC(N)=O)nc2c(c1=O)C1(CCCC1)Cc1ccccc1-2	-0.6	-0.45
O=S(=O)(c1ccc(F)cc1)N(Cc1cc(CN2CCOCC2)cs1)c1ccc(Cl)cc1	x	-1.7
CC(CS(=O)(=O)c1ccc2c(c1)NC(=O)C(C)S2)C(=O)NC1CCCCC1 (stereo unspecified)	x	-0.49
O=C(O)C1=CC(c2cccc(OCc3ccccc3)c2)n2nnnc2N1 (stereo unspecified)	x	0.3
COc1ccc2cc3cc(C(=O)NCCc4ccco4)sc3nc2c1Cl	x	7.9
O=c1c2ccccc2n2c(-c3ccc(F)cc3)nnc2n1Cc1ccccc1	6.2	0.34
O=c1[nH]c2cc3nc(C(F)(F)F)[nH]c3cc2[nH]1	-0.32	x
CC(=O)c1cccc(NC(=O)c2cc(Br)ccc2Cl)c1	2.5	x
Cc1cc(-c2c(C)sc(C)c2S(=O)(=O)N2CCc3ccccc3C2)on1	x	-1.2
Cc1cc(NC(=O)c2cc3n(n2)C(C(F)(F)F)CC(c2ccco2)N3)n(-c2ccccc2)n1 (stereo unspecified)	-0.39	-0.76
COc1ccccc1C(=O)Nc1cccc(Oc2c(F)c(F)c(F)c(F)c2F)c1	-0.9	x
CSc1nc(C)cc(NCc2ccc(Cl)cc2)n1	2	0.91
Brc1ccc(C2Nc3cccc4cccc(c34)N2)cc1	-0.51	-0.41
COC(=O)c1cc(S(=O)(=O)Nc2cccc(OC)c2)cn1C	-0.13	-0.62
CN(C)CCNC(=O)C(=O)c1c[nH]c2ccccc12	-1.2	x
C=CCOc1ccc(C2C(C(=O)c3ccc(C)o3)=C(O)C(=O)N2Cc2cccnc2)cc1 (stereo unspecified)	-0.74	-1.1
Cc1ccc2[nH]c(CN(C)Cc3ccc(F)cc3)cc(=O)c2c1	x	0.52
O=C1CC2(CCN(C(=O)NCc3ccco3)CC2)Oc2ccccc21	x	0.99
CCCCN(C)[C@H]1CS(=O)(=O)C[C@@H]1S(=O)(=O)c1ccc(Cl)cc1	-2.2	-1.5
CC1CC(=O)Nc2cc(S(=O)(=O)NC3CC3)ccc2S1 (stereo unspecified)	x	0.17
CCc1nn(CCCC(=O)NC2CCCc3ccccc32)c(=O)c2cc3oc(C)cc3n12 (stereo unspecified)	-2.2	-0.29
Clc1cc(Cl)c2nc(N3CCCCC3)sc2c1	-1.3	x
CCN(CC)S(=O)(=O)c1ccc2c(c1)N(CC(=O)NC1CCCC(C)C1C)C(=O)CO2 (stereo unspecified)	0.07	-0.49
Cc1cccc(-c2nnn3c2nc(NCC2CCCO2)c2ccccc23)c1 (stereo unspecified)	-2.7	-1.1

5 compounds drawn at random from those above, as already listed:
SMILES	CDC25B CDK2 inh	HIV TAR-Tat
CCc1nn(CCCC(=O)NC2CCCc3ccccc32)c(=O)c2cc3oc(C)cc3n12 (stereo unspecified)	-2.2	-0.29
COC(=O)c1cc(S(=O)(=O)Nc2cccc(OC)c2)cn1C	-0.13	-0.62
Clc1cc(Cl)c2nc(N3CCCCC3)sc2c1	-1.3	x
CCN(CC)S(=O)(=O)c1ccc2c(c1)N(CC(=O)NC1CCCC(C)C1C)C(=O)CO2 (stereo unspecified)	0.07	-0.49
CN(C)CCNC(=O)C(=O)c1c[nH]c2ccccc12	-1.2	x

Returning to the listing with the six entries that preceded the break.
SMILES	CDC25B CDK2 inh	HIV TAR-Tat
CCCCN(C)[C@H]1CS(=O)(=O)C[C@@H]1S(=O)(=O)c1ccc(Cl)cc1	-2.2	-1.5
CC1CC(=O)Nc2cc(S(=O)(=O)NC3CC3)ccc2S1 (stereo unspecified)	x	0.17
CCc1nn(CCCC(=O)NC2CCCc3ccccc32)c(=O)c2cc3oc(C)cc3n12 (stereo unspecified)	-2.2	-0.29
Clc1cc(Cl)c2nc(N3CCCCC3)sc2c1	-1.3	x
CCN(CC)S(=O)(=O)c1ccc2c(c1)N(CC(=O)NC1CCCC(C)C1C)C(=O)CO2 (stereo unspecified)	0.07	-0.49
Cc1cccc(-c2nnn3c2nc(NCC2CCCO2)c2ccccc23)c1 (stereo unspecified)	-2.7	-1.1
Cc1cccc(Nc2nc(=O)[nH]nc2C)c1C	-2.8	-0.65
Cc1c(C(=O)O)oc2ccc3c(c12)C(=O)CC(C)(c1ccc(F)cc1)O3 (stereo unspecified)	-1.1	1.8
O=C(/C=C/c1cccs1)NC(=S)Nc1ccccc1	8.3*	x
Cc1nn(C(C)C(=O)N2CCc3ccccc3C2)c(=O)c2c1sc1ccccc12 (stereo unspecified)	0.55	1.4
CC(C)Cn1c(=O)c2cc3c(=O)n(CC(C)C)c(=O)c3cc2c1=O	-1.3	x
Cc1ccc2oc(C(=O)Nc3sc4c(c3C(=O)NCC3CCCO3)CCC4)cc(=O)c2c1 (stereo unspecified)	-1.1	-0.09
CC(CC(=O)N1CCc2ccccc21)S(=O)(=O)c1ccc2c(c1)NC(=O)CO2 (stereo unspecified)	x	1.4
O=C(NCCN1CCOCC1)c1[nH]nc2c1CCc1ccccc1-2	x	0.8
Cc1ccc(-c2ccc(=O)[nH]n2)cc1S(=O)(=O)N(Cc1ccco1)CC1CCCO1 (stereo unspecified)	1.1	0.95
Cc1ccc(CNC(=O)c2cnc3sccn3c2=O)o1	x	1.4
CN(C)c1ccc(C(O)C(=O)c2ccccc2)cc1 (stereo unspecified)	-0.39	1.6
O=c1c(-c2ccccc2)cnc2c(-c3ccccc3)c[nH]n12	-0.15	-1.4
Cc1cc(C)n(-c2cc(NCc3cccc(Br)c3)ncn2)n1	x	0.39
CCN(CC)S(=O)(=O)c1ccc2c(c1)N(Cc1ccccn1)C(=O)CS2	x	-0.09
O=S1(=O)C[C@H](NCCc2ccccc2)[C@@H](S(=O)(=O)c2ccc(F)cc2)C1	-1.3	1.6
Cc1noc(C)c1CCNC(=O)C1CCN(c2nnc(N3CCCCC3=O)s2)CC1	x	1.7
CC(NS(C)(=O)=O)c1nc(-c2ccccc2)no1 (stereo unspecified)	-0.97	1.5
Cc1nc2c(C)cccn2c1C(=O)c1ccccc1	-1.8	1
O=C(Nc1ccc(Cl)cc1)c1csnn1	-1.1	x
Cc1ccc(C2CC(=O)NC3=C2C(=O)CC(c2ccc(F)cc2)C3)cc1 (stereo unspecified)	1.7	1.4
COc1ccc(C2C(C#N)=C3N=C(N)c4ccccc4N3C3=C2C(=O)CCC3)c(OC)c1 (stereo unspecified)	2.5	-5.1
Cc1cc(-c2ccc(C)c(S(=O)(=O)Nc3cccc(Br)c3)c2)on1	x	1.3
Cc1ccc(Nc2nc(C)c3ncn(-c4ccc(C)cc4)c3n2)cc1	-1	-0.26
Nc1ccccc1SCC(O)Cn1ccc2ccccc21 (stereo unspecified)	-5.4	x
O=C(c1ccc2nc(N3CCCCC3)sc2c1)N1CCN(C(=O)c2ccco2)CC1	-1	0.43
Cc1cc(C)cc(OCc2cc(=O)n3oc(C)cc3n2)c1	-0.7	0.64
O=C(Cn1cc(C(=O)c2cccs2)c2ccccc21)NC1CCCC1	-0.75	1.4
COc1ccc(-c2nc3c4c5c(sc4ncn3n2)C(C)(C)NC(C)(C)C5)cc1	-0.79	x
CCCCOc1ccc(/C=C2\SC(=S)N(CCC(=O)OC)C2=O)cc1OC	-3.4	x
Nc1c(-c2cccnc2)[nH]c2ccc(F)cc12	x	-7.1
Cc1ccc(NS(=O)(=O)c2ccc(-c3n[nH]c(C)c3C)s2)c(Br)c1	x	1.6
CCC(=O)N1c2ccccc2CC1C(=O)N1CCCC1 (stereo unspecified)	x	1.6
CC(C)(C)C(=O)Nc1c(Cl)sc2nccc(=O)n12	0.93	x
O=C(CSc1nccn1Cc1ccc2c(c1)OCO2)NC1CCCCC1	x	1.4
Cc1c(C(=O)O)sc2ncnc(NCCc3ccco3)c12	x	0.32
CCc1nnc2c(-n3nc(C)cc3C)nc3ccccc3n12	-1.7	2
CCc1cc2c3c([nH]c2cc1S(=O)(=O)Nc1ccc(F)cc1Cl)CCCC3=O	x	1.4
Cc1ccc(C2=NC(C(C)C)NC(c3ccccc3O)C2)cc1 (stereo unspecified)	x	1.6
Clc1ccc(SCc2ncon2)cc1	0.7	x
Cc1nccc(-c2cccc(NC(=O)c3ccccc3Cl)c2)n1	-1.8	x
CCOc1ccc(/C(O)=C2\C(=O)C(=O)N(c3nnc(C)s3)C2c2ccc(Cl)cc2)cc1 (stereo unspecified)	0.37	-0.08
COc1cc(OC)cc(-c2nc3c4ccccc4[nH]c(=O)n3n2)c1	0.65	1.8
CCOC(=O)C1CCN(c2nc3ccccc3n3c(CC)nnc23)CC1	x	-0.28
CCOCCCNc1ncnc2onc(C)c12	x	0.46
CC(=O)OCCOCn1cnn2c(=O)c(Br)c(C)nc12	-0.38	0.55
Cc1cc(C)nc(SCc2nnc(SCC(N)=O)n2-c2ccc(Cl)cc2)n1	-1.6	-0.45
C=CCNC(=O)C1=Cc2cc(OC)ccc2OC=C1	-1.2	-0.04
CCOc1ccc(NC(=O)C(=O)c2cc(Br)ccc2NC(C)=O)cc1	-2.3	x
Cc1nc2ccc(S(=O)(=O)NCC(=O)NC3CCCC3)cc2s1	1.4	1.4
CCN(CC)CCCCCCCCOC(=O)c1cc(OC)c(OC)c(OC)c1	-0.87	x
COc1cc2nc(SCC(=O)NCc3ccco3)n3nc(C)nc3c2cc1OC	-0.6	x
CCCCOc1cc(O)c2c(=O)cc(-c3ccccc3)oc2c1	-1.2	0.48
Cc1cc(NC(=O)c2sc3nc4c(c(-c5cccs5)c3c2N)CN(C)CC4)no1	4.5	-2.6
O=c1[nH]ccc2nc(NCc3cccs3)ncc12	-0.76	2.1
Cc1noc2ncnc(Nc3ccc(F)cc3)c12	x	0.42
c1cncc(-c2nc3c4ccccc4nc(N4CCOCC4)n3n2)c1	-0.21	1.7
CCc1cc2c(cc3c(=O)n(CCCC(=O)NC4CCCC4)nc(CC)n32)s1	1.5	0.37
CCOc1cc(C2c3c(-c4cc(C)ccc4O)n[nH]c3C(=O)N2CCCO)ccc1O (stereo unspecified)	-2.7	-1.7
CCOC(=O)N1CCc2c(sc3c2C(=O)NC(c2ccccc2O)N3)C1 (stereo unspecified)	2	0.21
CSc1ccc(NC(=O)N2CC=C(n3c(=O)[nH]c4ccccc43)CC2)cc1	-1.5	x

The listing continues.
SMILES	CDC25B CDK2 inh	HIV TAR-Tat
O=C(O)CCC(=O)N1N=C(c2c(-c3ccccc3)c3cc(Cl)ccc3[nH]c2=O)CC1c1ccc([N+](=O)[O-])cc1 (stereo unspecified)	-1.2	x
COc1ccc(S(=O)(=O)Nc2c(C)cc(O)cc2C)cc1	-0.9	0.35
O=c1c2[nH]c3ccccc3c2ncn1Cc1ccccc1	-0.22	0.65
COc1ccc(-c2noc(-c3cc(-c4ccco4)n[nH]3)n2)cc1	x	-11
CCC1Sc2ccc(S(=O)(=O)CCC(=O)Nc3ccc(F)c(Cl)c3)cc2NC1=O (stereo unspecified)	x	-0.4
Cc1nc(N2CCOCC2)cc(N2CCN(C(=O)C3CCCCC3)CC2)n1	-1.3	0.21
Cn1c(=O)c2c(SCc3ccccc3)nc(-c3ccc(F)cc3)nc2n(C)c1=O	-0.12	x
CCn1nc(C)c(CCNC(=O)NCC(C)C)c1C	x	-2.2
CCCCCCOC(=O)c1[nH]c2c(c1C)C(=O)CC(c1ccco1)C2 (stereo unspecified)	-0.71	2.6
O=S(=O)(c1ccc(C2CCCCC2)cc1)N(CCCN1CCOCC1)Cc1cccs1	-1.8	x
Cc1oc2ncnc(N3CCOCC3)c2c1C(=O)N1CCCCC1	x	1.9
COc1ccc(C2=NNC(c3ccccc3)C2)c(O)c1 (stereo unspecified)	-2	x
CCNC(=O)C1=CC(c2cccs2)=NS(=O)(=O)N1C	-1.6	1.4
CCNC(=O)CC[C@H](N)C(=O)O	x	1.1
Cc1nnc(SCc2cccc(Cl)c2)c2cc3sccc3n12	x	1.7
Cc1ccc(C(=O)CC2(O)C(=O)Nc3ccccc32)cc1 (stereo unspecified)	-0.95	-0.15
CCOC(=O)C1=C(C)N=c2s/c(=C/c3ccc(I)cc3)c(=O)n2C1c1ccccc1OC (stereo unspecified)	-2.9	x
NC(=O)c1csc(-c2ccncc2)n1	-0.04	x
O=S(=O)(Nc1cccc(N2CCCS2(=O)=O)c1)c1ccc(Br)cc1	x	-0.93
O=C(O)[C@H](O)[C@@](O)(Cc1ccc(O)cc1)C(=O)O	x	1.7
Cc1cc(C)c2c(=O)cc(CSc3nnc(COc4ccccc4C)n3C)[nH]c2c1	x	0.76
CC1(C)Cc2nc3sc4c(=O)n(CC(=O)c5ccc(Cl)cc5)cnc4c3cc2CO1	-2	x

Compound activity deposited in PubChem by Center for Chemical Genomics, University of Michigan.
